Screening data as filed in PubChem.
Rango dissoc inh = qHTS Assay for Inhibitors of RanGTP induced Rango (Ran-regulated importin-beta cargo) - Importin beta complex dissociation. 0.071% of 340,000 active. AID 540253, 2011. Biochemical FRET Rango-importin beta, RanGTP-induced dissociation. Potency, µM (doses to about 46.1 µM), inactives show at the top dose activity change, negative = inhibition; active means falling FRET ratio curve, often poorly fitted, with flat reads before Ran was added; inconclusive means other falling curves, or compound fluorescence or quenching; inactive means flat or rising ratio curve;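 also: potency is read from the fitted curve at half-maximal effect; % of control where 0% means no effect; nearly all actives have a fitted effect of over 45% in size; -100% = wells without RanGTP and RCC1; the record marks most hits as doubtful in a second field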
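Compounds preincubate 5 min with complex of recombinant Rango and importin beta in PBS with 1 mM DTT. Ran (0.6 uM) loaded with 2 mM GTP plus 0.2 uM RCC1 starts dissociation; FRET is recorded 45 min later.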
Rango complex inh = qHTS Assay for Inhibitors of Rango (Ran-regulated importin-beta cargo) - Importin beta complex formation | Rango CFP/YFP FRET sensor + importin beta, 45 min | Importin subunit beta-1 (Homo sapiens), Q14974 | Potency, µM (doses to about 92.2 µM), for the others: at the top dose inhibition of complex formation | 0.031% of 340,000 active; active = rising FRET ratio curve, often small or poorly fitted; inconclusive = mostly compound fluorescence or quenching in the first reads; inactive = flat curves in all reads;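 also: potency is read from the fitted curve at half-maximal effect; 0% = DMSO wells and 100% = buffer wells lacking importin beta; nearly all actives have a fitted effect of over 15% in size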
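FRET biosensor (snurportin 1 IBB flanked by EYFP and cerulean), 50 nM, with compound 5 min, then 0.125 microM importin beta in PBS, 1 mM DTT, 0.02% Tween-20, 0.1% BSA. CFP/YFP ratio read after 45 min at room temperature; pre-read flags interference.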
GLA inh pH 4.5 = qHTS Assay for Inhibitors of Human alpha-Galactosidase at pH 4.5; Alpha-galactosidase A (Homo sapiens), P06280; purified enzyme, 4-MU-alpha-Gal fluorescence, pH 4.5; activity change, negative = inhibition, % at 105 µM; 230,000 tested, under 10 active; AID 1467, 2008; inconclusive = small, poorly fitted or top-dose-only inhibition, or a rising curve; inactive = flat fitted curve, though single readings scatter; no compound was filed as active;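 also: 0% = full activity with enzyme and -100% = basal without enzyme; dose as in the result columns while the protocol names 77 µM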
Target sequence (P06280 whole entry, looked up): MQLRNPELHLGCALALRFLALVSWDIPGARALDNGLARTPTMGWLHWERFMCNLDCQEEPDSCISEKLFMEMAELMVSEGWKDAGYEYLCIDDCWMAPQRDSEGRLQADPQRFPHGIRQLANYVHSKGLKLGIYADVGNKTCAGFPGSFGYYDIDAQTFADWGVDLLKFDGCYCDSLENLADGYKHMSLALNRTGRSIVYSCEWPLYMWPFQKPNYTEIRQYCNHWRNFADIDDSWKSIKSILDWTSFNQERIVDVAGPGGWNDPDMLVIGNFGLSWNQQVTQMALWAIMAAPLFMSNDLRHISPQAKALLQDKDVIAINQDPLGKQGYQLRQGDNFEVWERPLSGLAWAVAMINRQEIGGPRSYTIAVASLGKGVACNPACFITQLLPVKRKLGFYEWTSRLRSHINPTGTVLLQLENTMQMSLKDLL
miR-21 FLuc = qHTS Assay for Modulators of miRNAs and/orActivators of miR-21. Potency, µM (series often up to 38.3 µM), for the others: top-dose reporter change, positive = more light. HeLa miR-21 FLuc reporter, luciferase, 48 h. 340,000 tested, under 10 active. AID 2288, 2010; active = well fitted rising curve with a large enough effect; inconclusive = small, poorly fitted or top-dose-only effect; inactive = no such curve, though single readings can be large or run the other way;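 also: % of control where 0% means no effect; miR-21 action dims this reporter so a rising signal means less miR-21 action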
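Luminescence from a firefly luciferase reporter carrying a miR-21 binding site downstream, stably expressed under a CMV promoter in HeLa cells that make miR-21 endogenously, reports miRNA modulation after 48 h compound exposure up to approximately 40uM final.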
An asterisk follows results filed as active; ? = inconclusive; / = no result given; & = joins results of further samples. Only part of the results is shown; the hit share may differ from the screen's.

Results follow in this order: Rango dissoc inh | Rango complex inh | GLA inh pH 4.5 | miR-21 FLuc
> O=C(NC(=S)Nc1ccc(S(=O)(=O)N2CCCCCC2)cc1)c1cccs1
 : 26% | -0.2% | 5 | 0%
> CC(NC(=O)Cn1c(NCCO)nc2ccccc21)c1ccccc1 (stereo not given)
 : -10% | -0.4% | 6 | -5%
> O=C(Nc1cccc(S(=O)(=O)NCc2ccco2)c1)c1cccc(Cl)c1
 : 5% | -2.9% | / | /
> CC(=O)c1ccc(OCC(=O)Nc2ccc3nc(C)sc3c2)cc1
 : 17% | 1.4% | -17 | -11%
> CC(=O)OC[C@H]1O[C@@H](Oc2cc3ccc(=O)oc3cc2OC(C)=O)[C@H](OC(C)=O)[C@@H](OC(C)=O)[C@@H]1OC(C)=O
 : ? | ? | / | /
> Cc1noc(C)c1S(=O)(=O)N1CCC(C(=O)N2CCN(C3CCCC3)CC2)CC1
 : / | / | -6 | 2%
> CCCCNc1nc(C)c(C(C)=O)cc1C#N
 : 4% | 1.5% | -5 | 3%
> O=C(c1cccnc1)N1CCN(C(=O)c2cccc(Cl)c2)CC1
 : -1% | -0.1% | / | 3%
> COC(=O)c1ccc(COC(=O)c2ccc(N(C)C)cc2)cc1
 : 0% | -2.7% | -19 | -10%
> Cc1ccc2c(C)cc(=S)[nH]c2c1
 : -5% | 2.4% | 6 | 1%
> COC(=O)[C@H](C)NC(=O)c1cc2c(cn1)[nH]c1ccccc12
 : -15% | -4.3% | / | -1%
> CCOC(=O)N/N=C(C)/C=C/c1ccccc1
 : -6% | -1.8% | -2 | -56%
> O=C(NC1(C(F)(F)F)NC(=O)N(Cc2cccnc2)C1=O)c1ccc(F)cc1 (stereo not given)
 : -11% | 4.5% | 0 | -6%
> Cc1ccc(SCCC(=O)Nc2ccc(Br)c(C)c2)cc1
 : 3% | 2.5% | -12 | -8%
> COC(=O)c1nn(-c2ccccc2)c(Sc2ccc(OC)cc2)c1/C=N/O
 : 22% | 0.2% | 18 | -7%
> C=CCOc1c(Br)cc(CNn2cn[nH]c2=S)cc1OC
 : -2% | 2.5% | 4 | -22%
> COc1ccc(C(=O)O)cc1S(=O)(=O)N1CCCc2ccccc21
 : 17% | 0.9% | / | 0%
> COc1ccc(NC(=O)CSc2nnc(-c3ccccc3)n2Cc2ccco2)c(OC)c1
 : 9% | 1.7% | -16 | 1%
> C=CCC1NCCc2c(Br)cccc21 (stereo not given)
 : 10% | 0.4% | 0 | -2%
> COc1cccc(C(=O)C2CCCN(Cc3cn(CC(N)=O)c4ccccc34)C2)c1 (stereo not given)
 : -13% | 0.3% | 0 | 1%
> CCCC(=O)NCCc1cc(OC)c(OC)cc1Br
 : -5% | -3.8% | -5 | -5%
> CC(O)[C@H]1CNC(=O)C(=O)N1CC1CCCCC1 (stereo not given in full)
 : -12% | 4.9% | 11 | 1%
> CCOc1cc(/C=N/Nc2nnc(C)n2N)ccc1OC(C)=O
 : -14% | -0.6% | / | 9%
> Fc1ccccc1CSc1nc2ncccc2[nH]1
 : -15% | 2.7% | 4 | -42%
> CCOc1ccccc1-n1nnnc1SCC(=O)NC(=O)Nc1ccc2c(c1)OCCO2
 : 6% | 0.6% | -13 | -2%
> Cc1cc2c(=O)n(C)c(SCC(=O)Nc3ccccc3C)nc2s1
 : -21% | 5.5% | / | /
> COc1ccc(/C=C2\SC(=O)N(CCNC(=O)CCS(=O)(=O)c3ccc(C)cc3)C2=O)cc1
 : -11% | -3.6% | -10 | -42%
> CCN(CC(=O)NCc1cccs1)C(=O)c1cccc(S(=O)(=O)NCc2ccccc2)c1
 : 1% | 0.5% | / | /
> Cc1ccc(NC(=O)CCS(=O)(=O)c2cccc3nonc23)c(Cl)c1
 : -29% | -2.3% | / | -8%
> COc1cc(/C=N\Nc2cc(=O)n(C)c(=O)n2C)ccc1O
 : 18% | -0.6% | -23 | 16%

Looked up by compound from the list above:
Results follow in this order: Rango dissoc inh | Rango complex inh | GLA inh pH 4.5 | miR-21 FLuc
> COc1cc(/C=N\Nc2cc(=O)n(C)c(=O)n2C)ccc1O
 : 18% | -0.6% | -23 | 16%
> CC(O)[C@H]1CNC(=O)C(=O)N1CC1CCCCC1 (stereo not given in full)
 : -12% | 4.9% | 11 | 1%
> COc1ccc(C(=O)O)cc1S(=O)(=O)N1CCCc2ccccc21
 : 17% | 0.9% | / | 0%
> Cc1ccc(NC(=O)CCS(=O)(=O)c2cccc3nonc23)c(Cl)c1
 : -29% | -2.3% | / | -8%
> COc1ccc(/C=C2\SC(=O)N(CCNC(=O)CCS(=O)(=O)c3ccc(C)cc3)C2=O)cc1
 : -11% | -3.6% | -10 | -42%

(further entries)
Results follow in this order: Rango dissoc inh | Rango complex inh | GLA inh pH 4.5 | miR-21 FLuc
> Cc1ccccc1C(=O)N[C@H](C(=O)OCC(=O)NC1CC1)C(C)C
 : ? | -1.2% | / | /
> COc1ccc(C)cc1-n1nnnc1SC/C(O)=C(\C#N)c1nc2ccccc2[nH]1
 : -4% | -1.3% | -16 | -3%
> CC1(NC(=S)NCCO)CCS(=O)(=O)C1 (stereo not given)
 : 3% | 2.4% | 7 | -4%
> COc1ccc(NC(=O)N/C=C/c2ccc(Cl)cc2)cc1
 : 0% | 1.4% | -21 | -11%
> CC(Oc1cc2oc(=O)c3c(c2cc1Cl)CCC3)C(=O)NC1CC(C)(C)NC(C)(C)C1 (stereo not given)
 : 1% | 0.2% | / | -8%
> COc1ccc(-c2noc3c2-c2nc(-c4ccccc4)sc2CC3)cc1
 : 0% | -2.6% | / | /
> NC(=O)Cn1cnc(-c2ccccc2)c1
 : -15% | -3.6% | 3 | -6%
> CCOC(=O)CNC(=O)CSc1nc2cccnc2n1C1CCCCC1
 : 1% | -0.8% | -2 | -13%
> S=C(NCc1ccc2[nH]c3c(c2c1)CCCC3)Nc1ccccc1
 : -21% | -1.8% | -22 | -10%
> COc1cc(C(=O)N2CCC(NC(=O)C(Cc3ccccc3C)NC(C)=O)CC2)cc(OC)c1OC (stereo not given)
 : 20% | -0.3% | 3 | -1%
> O=C(CCNc1cccc(F)c1)c1cccc([N+](=O)[O-])c1
 : -11% | -2.9% | 3 | 0%
> CCC1CCCCN1CCCNC(=O)c1ccc(N2CCOCC2)c(NS(=O)(=O)c2ccc(OC)cc2)c1 (stereo not given)
 : -3% | -0.3% | 0 | -3%
> COc1ccc(CNC(=O)CSc2nnc(C)s2)cc1
 : -9% | -5.1% | 4 | 1%
> Cc1ccc(CCN2CC(C(=O)O)CC2=O)cc1 (stereo not given)
 : 16% | 7.5% | 9 | -2%
> Clc1ccc(Cn2ncc3c(N4CCOCC4)ncnc32)cc1
 : 1% | -3.7% | 0 | 0%
> CCN(CC)S(=O)(=O)c1ccc(C(=O)NCc2n[nH]c(=S)n2-c2ccccc2OC)cc1
 : 3% | -1.9% | 3 | -3%
> CCOc1ncccc1C(=O)OCC(=O)NCCc1ccc(S(N)(=O)=O)cc1
 : -4% | -2.2% | / | /
> Cc1cc(C)cc(N(C(C)C(=O)NCCC2=CCCCC2)S(C)(=O)=O)c1 (stereo not given)
 : 0% | -1.8% | -7 | 3%
> CC(=O)c1cc(C)ccc1OC(=O)c1ccco1
 : 2% | -3.2% | -1 | -7%
> Cc1onc(-c2ccccc2)c1C(=O)N/N=C/c1c(F)cccc1Cl
 : -4% | 0.4% | / | -1%
> Cc1cccc(N2CCN(C(=O)CCCOc3ccccc3)CC2)c1C
 : -2% | 2.6% | -8 | -57%
> COc1ccc(C(C)=O)cc1COC(=O)c1cc(C)nc2ccccc12
 : 27% | -0.4% | 5 | 5%
> CC(=O)C[C@H](O)CC(=O)[C@@H]1OC(=O)CCCCCCCCc2ccccc21
 : -6% | -0.4% | / | /
> N=C(c1ccc([N+](=O)[O-])cc1)N1CCCCC1
 : -14% | 1.5% | 3 | 1%
> CC(C(=O)NC1CCCCC1)N1C(=O)C2C3C=CC(C3)C2C1=O (stereo not given)
 : 9% | -0.6% | / | 0%
> CC(Sc1nnnn1-c1ccccc1)C(=O)Nc1ccc(Cl)cn1 (stereo not given)
 : 28% | 1.4% | -7 | -4%
> O=[N+]([O-])c1ccc(N2CCCCC2)cc1N1CCOCC1
 : -2% | 2.9% | -3 | -13%
> O=C(NNC(=O)c1cccc2ccccc12)c1ccc(Cl)c(Cl)c1
 : -10% | -9.9% | / | /
> CCOc1ccc(S(=O)(=O)NCCC(=O)N2CCN(c3ncccn3)CC2)cc1
 : -6% | -2.6% | / | /
> O=C(CNC(=O)c1ccco1)OCC(=O)c1ccc(Cl)cc1Cl
 : -22% | ? | -3 | 0%
> CN(c1ccc(OCC(=O)OCC(=O)c2c(N)n(C)c(=O)n(C)c2=O)cc1)S(=O)(=O)c1ccc2ccccc2c1
 : 5% | ? | -5 | -2%
> O=S(=O)(c1ccc(Br)s1)N1CCN(c2ccc(F)cc2)CC1
 : -7% | 10% | / | 2%
> CCCc1nnc(SCC(=O)N(CC)CC)n1CC1CCCO1 (stereo not given)
 : 7% | 2.9% | 7 | -1%
> O=C(NC(=S)N1CCc2ccccc21)c1ccc(Br)o1
 : 11% | -2.8% | 6 | -14%
> O=C(Cn1ccc2ccccc2c1=O)NCCC(=O)Nc1cccc(Cl)c1
 : 1% | ? | / | 6%
> COc1ccc(/C=C/c2nc3sc4c(c3c(=O)o2)CCC4)cc1
 : -24% | ? | / | /
> COC(=O)c1cccc(Nc2ccc([N+](=O)[O-])cn2)c1
 : -19% | ? | 0 | -15%
> CN(C)/C=N/C1=C(C#N)C(c2cccs2)c2ccc3ccccc3c2O1 (stereo not given)
 : ? | ? | -4 | -17%
> Fc1ccccc1Cn1cc(C(=S)N2CCOCC2)c2ccccc21
 : -19% | 2.1% | -4 | -13%
> CC(C)C(=O)N1CCC2(CC1)Oc1ccc(Cl)cc1C(=O)C21CC(c2ccccc2)=NO1 (stereo not given)
 : 2% | -0.2% | -3 | 5%
> O=C1CCN(Cc2ccccc2)C=C1c1ccc(Cl)cc1
 : -8% | 1.8% | / | /
> Cc1ccc(C)c(Cn2nnc3c(=O)[nH]c(C(=O)Nc4ccc(F)cc4)nc32)c1
 : 9% | -2.7% | 0 | -15%
> O=C(CSc1nc(=O)n2ccccc2n1)N1CCCCCC1
 : -6% | 2.6% | / | /
> CCc1ccccc1NC(=O)CN(c1cccc(OC)c1)S(C)(=O)=O
 : -11% | 2.1% | 3 | -3%
> CC(=O)N1CC(C)Sc2ccc(S(=O)(=O)NCc3ccc(Cl)cc3)cc21 (stereo not given)
 : -5% | -1.4% | / | 16%
> C=CCn1c(Cc2c(C)[nH]c3ccccc23)nnc1SCC(=O)NCc1ccc(F)cc1
 : -20% | ? | 1 | -4%
> Cc1nc(C)c(C(=O)C2=C(O)C(=O)N(CCN(C)C)C2c2ccco2)s1 (stereo not given)
 : -18% | 3.2% | -5 | -6%
> Cc1cc(C)n(Cc2cnc(N3CCOCC3)s2)n1
 : 22% | 0.0% | -4 | 0%
> O=c1[nH]n(-c2ccccc2)c(=O)c2ccccc12
 : -8% | 1.9% | 5 | -8%
> O=Cc1ccc(OCCCOc2cccc3cccnc23)cc1
 : -3% | -0.6% | / | -23%
> COc1ccc2cc(C3(C)NC(=O)N(CC(=O)NCCC4=CCCCC4)C3=O)ccc2c1 (stereo not given)
 : 0% | 8.1% | -1 | 11%
> CCc1nc2ccccc2n1Cc1ccc(F)cc1
 : -6% | 0.0% | 5 | -3%
> COc1ccc(C2C(C(=O)Nc3ccccc3OC)=C(C)Nc3ncnn32)cc1 (stereo not given)
 : ? | -3.5% | -7 | -2%
> COc1ccc(CCC(=O)OCC(=O)c2ccc(C)cc2)cc1
 : 3% | 0.4% | -5 | -1%
> CCCCN1Cc2cc(C(=O)c3cc(OC)ccc3O)cnc2NC1=O
 : 6% | 0.4% | 2 | -13%
> COC(=O)c1cc(NC(=O)c2ccco2)ccc1N1CCOCC1
 : -5% | ? | 1 | -1%
> Cc1cccc(NC(=O)COC(=O)CCCC2=NS(=O)(=O)c3ccccc3N2)c1
 : -1% | -3.5% | / | 1%&-1%
